High-throughput results as filed in PubChem BioAssay.
GIV-Gai inh = inhibitors of GIV peptide binding to Galpha-i3, primary screen, biochemical, fluorescence polarization, FITC-GIV GBA peptide, rat Galphai3; 210,000 tested, 0.42% active; percent of control (FP), % (no concentration beside the values); AID 1224905, 2016; 90 min; stronger effect = lower value; scaled: aluminum fluoride 0%, vehicle 100%; Guanine nucleotide-binding protein G(i) subunit alpha-3 (Rattus norvegicus), P08753;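 active = replicate mean at 85% of control or lower, very high polarization wells dropped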;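 note: wells of about 15 µL received 100 nL stock; the first replicate is given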
Target sequence (P08753 whole entry, looked up): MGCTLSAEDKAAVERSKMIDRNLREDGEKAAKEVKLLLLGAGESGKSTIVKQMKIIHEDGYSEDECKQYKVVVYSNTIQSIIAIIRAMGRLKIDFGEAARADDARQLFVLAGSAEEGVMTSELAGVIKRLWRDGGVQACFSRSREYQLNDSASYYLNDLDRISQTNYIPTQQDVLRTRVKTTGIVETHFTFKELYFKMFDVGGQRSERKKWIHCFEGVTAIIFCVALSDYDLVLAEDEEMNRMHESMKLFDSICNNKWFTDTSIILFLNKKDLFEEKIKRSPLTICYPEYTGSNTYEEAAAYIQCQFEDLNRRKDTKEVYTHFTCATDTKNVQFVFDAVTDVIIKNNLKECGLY
The depositor's hits bear a star. Some of the compounds tested (hit frequency here may not be typical).

SMILES | GIV-Gai inh
Cc1ccc(-c2nc3ccc(C(=O)c4ccccc4)cc3nc2-c2ccc(C)cc2)cc1 | 102.8
COc1ccc(-c2cc(N3CCN(C(=O)c4ccc(C(C)C)cc4)CC3)ncn2)cc1 | 106.8
Cc1cccc(NC(=O)c2sc3nc4c(c(-c5ccco5)c3c2N)CCC4)c1 | 106.5
O=CC12c3ccccc3C(c3ccccc31)C1C(=O)N(c3ccc(N=Nc4ccccc4)cc3)C(=O)C12 (centres undefined) | 104.3
COCCOC(=O)C1=C(C)NC(C)=C(C(=O)OCCOC)C1c1ccc(-c2ccc(Cl)cc2)o1 | 100.4
COc1cc(OC)cc(C(=O)NCc2ccc3c(c2)N(C(=O)c2ccc(Cl)cc2)CC3)c1 | 99.3
NC(=O)c1nc(Nc2ccccc2)sc1NC(=O)CCC1CCCC1 | 106.0
O=C(NCc1ccccc1)C(Sc1nc2ccccc2c(=O)n1CC1CCCO1)C(=O)NCc1ccccc1 (centres undefined) | 103.8
CC(C)CNC(=O)c1sc2ncccc2c1-n1cccc1 | 104.9
COc1ccc(N2C(=N)S/C(=C\c3cn[nH]c3-c3ccc(F)cc3)C2=O)cc1 | 106.8
COc1ccc(NC(=O)c2c(NC(=O)COc3ccc(Cl)cc3)sc3c2CCC3)cc1 | 115.0
COc1ccc(C2/C(=C(/O)c3ccccc3)C(=O)C(=O)N2c2ccc(F)cc2)cc1OC (centres undefined) | 104.6
Cc1ccsc1C1C=C(c2cccc(Br)c2)Nc2ncnn21 (centres undefined) | 80.8*
C=CCSc1nn2c(=O)c(C)nnc2s1 | 107.2
O=C1CC(c2ccc(Cl)cc2Cl)c2ccc3ccccc3c2N1 (centres undefined) | 102.6
CCNc1cc(C)nc(Nc2ccc(NS(=O)(=O)c3ccc(OC)cc3)cc2)n1 | 100.1
Cc1cc(Cl)ccc1NS(=O)(=O)c1cc(-c2nc(C(C)(C)C)cs2)cs1 | 105.1
c1cncc(CNc2nc(C3CC3)nc3c2CCC3)c1 | 100.9
CN(CC#N)C(=O)c1cnn2c3c(cnc12)CCCCCC3 | 104.0
Cn1c(CNC(=O)C2CCC2)nc2c1CN(C(=O)c1ccc(C(F)(F)F)s1)CC2 | 103.0
COc1cccc(-c2ccc(=O)n(CCc3nc(-c4ccc(C)cc4)no3)n2)c1 | 98.4
CN(CCc1ccccn1)C(=O)c1ccc(Cn2c(=S)[nH]c3ccc(Br)cc3c2=O)cc1 | 120.7
COc1ccccc1N1CCN(C(=O)CCc2nc(-c3ccc(N4CCCC4)cc3)no2)CC1 | 89.6
CC(C)OC(=O)C1=C(N)SC(C(=O)c2ccccc2)C1c1ccccc1 (centres undefined) | 107.0
COc1cccc(CNC2=NCCNC23CCC(c2ccccc2)CC3)c1 (centres undefined) | 103.4
CCCCOc1ccc(C2C=C(Nc3ccc(C)cc3)C(=O)N2c2ccc(C)cc2)cc1 (centres undefined) | 110.2
COc1ccc(CCN2C(=S)SC(C)(C)C2N(O)C(=O)NC2CCCCC2)cc1OC (centres undefined) | 101.3
Cc1ccccc1NC(=O)CSCc1cc(=O)c2ccccc2[nH]1 | 109.8
CC(C)(C)NS(=O)(=O)c1ccc2c(c1)Cc1cc(S(=O)(=O)NC(C)(C)C)ccc1-2 | 106.1
O=C(O)CN1C(=O)C2(OCCO2)c2ccccc21 | 111.0
CCc1ccc(N/C(SCc2ccccc2C)=C(/C#N)C(=O)NCc2ccco2)cc1 | 94.9
O=S(=O)(c1ccc2c(c1)OCCO2)N1CCn2cccc2C1c1ccccc1F (centres undefined) | 103.0
Cc1ccc(C2(C)CC(C)(C)N(C(=O)CN3C(=O)c4ccccc4C3=O)c3ccc(C(c4ccccc4)(c4ccccc4)c4ccccc4)cc32)cc1 (centres undefined) | 104.9
CCN(Cc1ccccc1)c1ccc(NC(=O)c2ccc(OC)cc2)cc1C(=O)O | 105.7
CCCCOc1ccc(C2C3CN(C(=O)OC(C)(C)C)CC=C3C(C#N)=C(N)C2(C#N)C#N)cc1OC (centres undefined) | 126.2
CCN(CC)S(=O)(=O)c1cc(-c2nnc(C)o2)co1 | 111.0
CCOC(=O)C1=C(C)NC2=C(C(=O)C(C(=O)OCC)C(c3ccc(OC)cc3)C2)C1c1ccc(O)c(OC)c1 (centres undefined) | 104.0
CCN(CC)CC(=O)N1c2ccccc2Sc2ccc(C(F)(F)F)cc21 | 106.3
CC(=O)N1c2ccccc2N=C(c2ccc(Cl)cc2)CC1c1ccc([N+](=O)[O-])cc1 (centres undefined) | 107.7
CCN1C(=O)CC(C(=O)Nc2ccc(Br)cc2)SC1=Nc1ccc(OC)cc1 (centres undefined) | 100.8
O=C(c1cc2ccccc2[nH]1)N1CCN(S(=O)(=O)c2ccc3[nH]c(=O)sc3c2)CC1 | 101.1
O=C(c1cc2c(s1)CCCC2)N1CCN(c2nnc3ccccn23)CC1 | 110.6
COc1cc(C2Nc3ccccc3C(=O)N2c2ccccc2)cc(OC)c1OC (centres undefined) | 103.5
CCOC(=O)C1=C(c2ccccc2)N(C)C(=O)NC1c1ccc(OC(F)F)c(OC)c1 (centres undefined) | 108.3
O=S(=O)(c1cccc2nonc12)N1CCC2(CC1)OCCO2 | 98.7
CCOC(=O)C1CCN(C(=O)c2cc3cn(C4CC4)cc3s2)CC1 | 128.4
Cn1c(SCc2nc(-c3cccc(Cl)c3)no2)nc2cc3c(cc2c1=O)OCO3 | 106.1
Cc1ccnc(NC(=O)C2CCCN(S(=O)(=O)c3c(C)nn(CC(=O)N4CCc5ccccc54)c3C)C2)c1 (centres undefined) | 101.4
Cc1ccc(-c2csc3c(=O)n(C)cnc23)cc1 | 104.5
O=C(Oc1cc2oc3ccccc3[nH]c2c2c(=O)c3ccccc3c(=O)c12)c1ccccc1 | 98.5
CCC(C)(C)C(=O)NC1CCN(C2=NS(=O)(=O)C(c3ccc(C(C)C)cc3)=C2C)CC1 | 99.3
COc1ccc(CCNC(=O)CSc2nnc3c(n2)[nH]c2ccccc23)cc1OC | 109.2
CCCCCCCCCCCCCCCCCC(=O)NC1C(OC(C)=O)OC(COC(C)=O)C(OC(C)=O)C1OC(C)=O (centres undefined) | 119.0
CCSc1nnc(-c2nn(C)c3c2CN(S(=O)(=O)c2cc(Cl)ccc2OC)CC3)n1CC | 105.9
Cn1nc(COCc2ccccc2F)c2c1CCN(C(=O)C1CCCC1)C2 | 101.5
CCOC(=O)c1[nH]c(C)c(CN(C(=O)Nc2cc(Cl)ccc2OC)C2CCCCC2)c1C | 108.3
COCCn1c(C2CCN(S(=O)(=O)c3ccc(Cl)cc3)C2)nc2cccnc21 (centres undefined) | 100.7
COc1cc(/C=C2\N=C(c3cc(OC)c(OC)c(OC)c3)OC2=O)cc(OC)c1OC | 114.8
CCOCCOC(=O)C1=C(C)NC2=C(C(=O)CC(c3cccs3)C2)C1c1cc(OC)c(OC)cc1OC (centres undefined) | 100.5
Cc1cccc(-n2nc3c(c2NC(=O)c2cc(Br)ccc2Cl)CS(=O)(=O)C3)c1C | 110.2

The list goes on.
SMILES | GIV-Gai inh
CNC(=O)N(O)C1N(C)C(=O)N(CCC2=CCCCC2)C1(C)C (centres undefined) | 97.1
Cc1cc2c(cc1[N+](=O)[O-])-c1ncccc1C2=O | 100.5
O=C1c2ccc([N+](=O)[O-])cc2C(=O)N1C1C(=O)N(c2ccc(Cl)c(Cl)c2)C1c1ccc(F)cc1 (centres undefined) | 111.2
CCS(=O)(=O)N1CCCC1c1c(C)noc1C (centres undefined) | 103.1
CCOC(=O)N1CCN(C(=O)CCN2C(=O)c3ccccc3C2=O)CC1 | 108.2
CN1CCC(N2CCN(C(=O)C3CCCN(c4cnc5nccnc5c4)C3)CC2)CC1 (centres undefined) | 107.1
Cc1nc(SCC(=O)Nc2ccc(Br)cc2)c(C#N)c2c1CCCC2 | 102.9
COc1cc(CNc2ncnc3c2CCC3)cc(OC)c1 | 130.5
Cc1ccc(C)c(CSc2nc3cc(C(=O)NC(C)C)ccc3c(=O)n2CC2CCCO2)c1 (centres undefined) | 107.9
N#Cc1c(NC(=O)CN2C(=O)c3ccccc3C2=O)oc(-c2ccccc2)c1-c1ccccc1 | 109.2
N#CC1(C#N)[C@@H]2c3ccccc3C=CN2[C@@H](C(=O)C23CC4CC(CC(C4)C2)C3)[C@@H]1c1ccccc1Br | 106.1
Cc1nc(-c2cc(S(=O)(=O)NCc3ccc4c(c3)OCO4)c(C)s2)sc1C | 104.7
COCCOC(=O)C1=C(C)NC2(O)c3ccccc3C(=O)C12O (centres undefined) | 103.6
COc1ccc(C2N(Cc3ccccc3)CCN2Cc2ccccc2)c2ccccc12 | 116.4
Cn1c(=O)c(=O)n(CCC(=O)NCc2ccc(Cl)cc2)c2ccccc21 | 106.1
CCc1ccc(C(=O)CSc2n[nH]c(-c3ccncc3)n2)cc1 | 102.4
O=C(NCC1CCCO1)N1CCCn2nc(-c3cccs3)cc2C1 (centres undefined) | 99.9
Cc1ccc(NC(=O)c2cccc(-n3cnnc3)n2)cc1Cl | 104.8
COc1ccc(OCC(=O)N2CSC[C@@H]2C(=O)NCCc2cscn2)cc1 | 99.5
CC(=O)C1=C(C)NC(SCC(=O)NC23CC4CC(CC(C4)C2)C3)=C(C#N)[C@@H]1c1ccccc1[N+](=O)[O-] | 104.9
O=C(Nc1ccccc1)c1ccc(=O)n(CC(=O)N2CCCc3ccccc32)n1 | 107.5
CCOC(=O)C1=NN(c2ccc(Br)cc2)C2(Nc3ccccc3S2)S1 (centres undefined) | 100.0
Cc1ccc(CNC(=O)CC2CCN(C(=O)c3cc4ccccc4[nH]3)CC2)cc1 | 99.9
CC(=O)c1c(C)nc2c(C#N)c(C)n(-c3ccc(Br)cc3)c2c1-c1ccccc1 | 109.0
C=CCN(CN1C(=O)C2C3C=CC(C3)C2C1=O)CN1C(=O)C2C3C=CC(C3)C2C1=O (centres undefined) | 104.2
O=C1c2[nH]nc(-c3ccccc3)c2C(c2ccc3c(c2)OCO3)N1c1ccccc1 (centres undefined) | 105.5
CCOCCCNC(=O)C1CCCN(C(=O)CCc2c(C)[nH]c(C(=O)OCC)c2C)C1 (centres undefined) | 106.9
COc1cc(C2CC(=O)NC(SCc3ccccc3)=C2C#N)cc(Br)c1O (centres undefined) | 109.1
O=C1c2ccccc2-c2ccc(-c3nc(-c4ccc(C#Cc5ccccc5)cc4)[nH]c3-c3ccccc3)cc21 | 111.3
CCOC(=O)c1c(C)n(CCOCc2ccccc2Cl)c2c1cc(O)c1ccccc12 | 106.5
CC(C)CC(=O)Nc1ccc(S(=O)(=O)N2CCCC2c2nc(-c3ccc(Cl)cc3)no2)cc1 (centres undefined) | 98.1
O=C(NCCCN1CCCC1=O)c1ccc2c(=O)n(CCc3c[nH]c4ccccc34)c(=S)[nH]c2c1 | 107.7
COc1cc(C2C(C#N)=C(N)Oc3n[nH]c(-c4ccc5c(c4)OCO5)c32)cc(OC)c1OC(C)=O (centres undefined) | 105.0
COc1ccc(Oc2c(C(F)(F)F)oc3c(CN4CCCCC4)c(O)ccc3c2=O)cc1 | 100.2
CCOC(=O)C1CCC(CNC(=O)N2CCCCCC2c2cccs2)CC1 (centres undefined) | 101.5
O=C(Nc1ccc(F)c(Cl)c1)N1CCN(Cc2cc(=O)n3nc(-c4ccc(F)cc4)sc3n2)CC1 | 106.0
O=C(COC(=O)c1ccc2c3c1C1C=CCC1CN3CC1CC=CC21)c1ccc(-c2ccccc2)cc1 (centres undefined) | 105.7
CCC(CC)C(=O)CN1C(=O)C2(OCCO2)c2ccccc21 | 105.7
Cc1ccc(NC(=O)CSC2=C(C#N)C(c3ccc4c(c3)OCO4)C3=C(CCCC3=O)N2)c(C)c1 (centres undefined) | 105.2
CCCCNC(=O)c1ccc2c(c1)[nH]c(=S)n1c3ccccc3nc21 | 102.6
Cc1cccc(NC(=O)C2CCCN(S(=O)(=O)c3cc(-c4noc(C)n4)cs3)C2)n1 (centres undefined) | 108.3
O=[N+]([O-])c1ccc(C2Nc3ccc(Cl)cc3C(c3ccccc3)O2)cc1 (centres undefined) | 120.8
CCOc1ccc(NC(=O)Nc2cccc(OCc3cc(=O)n4ccccc4n3)c2)cc1 | 100.5
